Assay outcomes as filed in PubChem.
GALR2 ag – GALR2 (human) receptor agonism. O43603. GALR2-expressing cells, agonist activation read-out. activation, %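 (tested at 5 µM)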. 0.48% of 140,000 active;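 active = above mean plus 3 SD of all compounds, about 5% in these data, not always enough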;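 note: 0% = vehicle buffer wells and 100% = reference agonist at full effect; tested in CHO reporter cells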
Target sequence (O43603 whole entry, looked up): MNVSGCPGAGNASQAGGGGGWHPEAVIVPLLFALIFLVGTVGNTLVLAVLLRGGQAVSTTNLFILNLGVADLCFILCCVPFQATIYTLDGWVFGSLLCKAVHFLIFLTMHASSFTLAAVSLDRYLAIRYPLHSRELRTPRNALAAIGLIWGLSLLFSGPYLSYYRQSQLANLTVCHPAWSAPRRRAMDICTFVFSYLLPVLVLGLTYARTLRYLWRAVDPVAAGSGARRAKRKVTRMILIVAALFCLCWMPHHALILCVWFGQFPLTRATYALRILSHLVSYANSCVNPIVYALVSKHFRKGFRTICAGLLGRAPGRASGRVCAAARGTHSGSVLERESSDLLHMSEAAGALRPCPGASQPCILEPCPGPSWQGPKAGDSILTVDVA
PKD1 kinase inh – PKD1 (human) kinase inhibition | 0.056% of 200,000 active | inhibition, %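 (about 10 µM by stock and volumes)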 | Q15139 | PKD1 kinase fluorescence polarization assay;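 active = inhibition of 50% or more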;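 note: controls were vehicle for no effect and a reference inhibitor for full effect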
INS promoter inh – TRM-6 insulin promoter activity inhibition; TRM-6 cells (human fetal islet line), insulin promoter-eGFP reporter, imaging; reporter expression induced with tamoxifen; inhibition, % at 2 µM; 0.9% of 130,000 active; AID 1273;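 active = inhibition above the mean plus 3 SD, with well images judged a real hit on visual review, cut at about 60% in these data, passing the limit was not always enough; inconclusive = inhibition over the cutoff but images rejected on review; inactive = inhibition not above the cutoff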
HSV replic up – HSV replication enhancement | HSV replication augmentation in cells, fold increase | maximum fold increase | 0.005% of 220,000 active;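 active = peak rise of 1.5-fold or more in the series; inconclusive = self-fluorescent or not available for retest; tested in PC3 cells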;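 note: first round at 10 µM; read as green reporter fluorescence; hits show the peak of a series up to 25 µM; 1 = signal of infected wells without compound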
RGS16-Gao HTS – modulates binding between human RGS16 and Galphao | bead-based flow cytometry RGS16-Galphao binding, fluorescence; actives lie on both sides | binding response (% of control), % at 10 µM | 0.38% of 220,000 active;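 active = below 25% or above 175%, edge rows of some plates excepted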;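 note: Galphao activated by GDP with aluminum fluoride before binding; 100% = wells without compound and 0% = beads without RGS; some results beyond the cut were filed as inactive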
Target sequence (O15492 whole entry, looked up): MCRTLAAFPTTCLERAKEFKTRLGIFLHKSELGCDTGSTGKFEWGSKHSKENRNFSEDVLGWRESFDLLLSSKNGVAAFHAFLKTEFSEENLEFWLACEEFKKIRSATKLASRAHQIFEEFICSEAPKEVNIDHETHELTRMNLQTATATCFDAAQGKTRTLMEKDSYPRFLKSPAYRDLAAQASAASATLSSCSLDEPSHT
Target sequence (P09471 whole entry, looked up): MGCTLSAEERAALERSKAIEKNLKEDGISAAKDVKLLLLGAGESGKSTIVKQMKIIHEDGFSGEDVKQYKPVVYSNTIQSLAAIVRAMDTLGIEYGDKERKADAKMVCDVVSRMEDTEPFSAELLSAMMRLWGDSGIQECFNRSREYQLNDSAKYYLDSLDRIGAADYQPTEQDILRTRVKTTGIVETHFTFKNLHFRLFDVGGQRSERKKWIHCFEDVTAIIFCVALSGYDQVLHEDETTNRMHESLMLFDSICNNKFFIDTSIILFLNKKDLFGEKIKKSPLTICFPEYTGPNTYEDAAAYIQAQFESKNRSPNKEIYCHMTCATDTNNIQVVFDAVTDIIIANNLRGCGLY
INS promoter inh cell count – second read-out of INS promoter inh, no call of its own (marks repeat the call); normalized cell count, %; measured here: cell count, toxicity; reference of the scale not given here;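 cells exposed to compound for 48 h; stained nuclei by imaging scaled within each plate; lower means fewer cells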
HSV replic up primary fold – further read-out of HSV replic up, marked with its call; fold increase; compound at 10 µM; measured here: primary screen fold increase 10 uM; tested in PC3 cells;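 GFP signal in the first replicate; 1 = infected wells without compound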
Numbers without * were called inactive; i = inactive; ? = inconclusive; / = no result given.

Each structure is followed by: GALR2 ag | PKD1 kinase inh | INS promoter inh | INS promoter inh cell count | HSV replic up | HSV replic up primary fold | RGS16-Gao HTS
- COc1ccc(OCc2nc3ccc(S(=O)(=O)Nc4ccccc4Cl)cc3[nH]2)cc1
 : 0.6 | -6.2 | / | / | i | 1.03 | 105.0
- O=C(CSCC(=O)Nc1ccc2ccccc2c1)NCc1ccccc1
 : -2.3 | -0.9 | / | / | i | 0.94 | 109.0
- COc1ccc(CN2CCNC(=O)C2CC(=O)NCc2csc(C(C)C)n2)c(OC)c1 (stereo not given)
 : / | -8.8 | 0.0 | 109.1 | i | 0.89 | 110.8
- CCOC(=O)C1[C@H]2C(=O)N(CCCOC)C[C@]23C=C[C@H]1O3 (stereo not given in full)
 : 0.3 | -3.0 | -47.1 | 84.3 | i | 1.01 | 95.4
- COc1cccc(C(C)NC(=O)c2c(F)cccc2Cl)c1 (stereo not given)
 : -2.0 | -6.3 | -12.8 | 77.6 | i | 0.99 | 100.6
- C=C(Cl)COC(=O)C1C2C=CC(C2)C1C(=O)O (stereo not given)
 : -2.7 | -4.6 | 38.1 | 117.1 | i | 1.13 | 99.5
- O=C1CCN(C(=O)CSc2ccc(Cl)cc2)N1
 : / | 0.3 | -45.5 | 130.7 | i | 1.03 | 115.2
- Clc1ccc(OCCCCSc2ncccn2)cc1
 : -1.1 | -1.4 | -43.3 | 66.3 | i | 1.11 | 93.4
- Cc1nc2ccc(C(=O)N3CCSCC3)cc2s1
 : -4.7 | -9.3 | -6.1 | 60.2 | i | 0.94 | 109.6
- Cc1c(NC(=O)NCc2ccccc2)c(=O)n(-c2ccccc2)n1C
 : -0.1 | -0.2 | / | / | i | 1.05 | 97.9
- CC(C)c1ccc2c(c1)c(SC(C)(C)C)c(CC(C)(C)C(=O)O)n2Cc1ccc(Cl)cc1
 : / | / | / | / | i | 0.83 | 97.3
- Cc1cc(Cl)ccc1OCC(=O)N1CC(C)CC(C)C1 (stereo not given)
 : -2.2 | -8.9 | -88.6 | 85.4 | i | 1 | 100.4
- O=C(NC(=S)NC1CCS(=O)(=O)C1)c1cccs1 (stereo not given)
 : 0.3 | -8.7 | 16.7 | 114.5 | i | 1.05 | 109.5
- Cc1noc(C)c1S(=O)(=O)N1CCCC(C(=O)N2CCc3ccccc3C2)C1 (stereo not given)
 : 0.0 | -12.2 | / | / | i | 1 | 102.3
- C/C(=N\NC(=O)c1ccc(N(C)C)cc1)c1ccc(C)cc1C
 : -0.4 | 10.8 | -16.7 | 116.2 | i | 0.77 | 107.3
- O=C(COc1ccc(Cl)cc1Cl)Nc1ccc(CN2CCCCC2)cc1
 : / | -9.0 | / | / | i | 1.12 | 100.7
- COc1cc(OC)c(-c2c3cc(O)c(=O)cc-3oc3cc(O)c(O)cc23)cc1OC
 : -1.5 | 11.2 | -150.0 | 142.8 | ? | / | 30.1
- O=C(c1ccc(-c2nc3ccccc3s2)s1)N1CCOCC1
 : / | -9.2 | 58.3 | 55.9 | i | 0.9 | 104.4
- COC(OC)c1ccc(C#N)c(SCc2ccccc2)n1
 : / | / | / | / | i | 1.09 | 104.2
- CCCCCC(=O)Nc1c(-c2ccc(OC)cc2)c(=O)c2ccccc2n1C
 : -2.8 | -6.2 | -19.4 | 67.2 | i | 1.09 | 100.3
- CN(C)c1ccc(Nc2nc(-c3cccnc3)cs2)cc1
 : -1.7 | -5.8 | / | / | i | 0.85 | 92.0
- CCN(CC)C(=O)Cn1cc(C(=O)C(=O)NCc2cccs2)c2ccccc21
 : / | 3.2 | -107.7 | 87.5 | / | / | 102.2
- c1cn(CC2(Cn3ccnc3)COC2)cn1
 : -0.4 | -6.7 | / | / | i | 0.98 | 104.4
- CSc1ccc(S(=O)(=O)N(C)Cc2ccccc2)cc1
 : / | 1.9 | 25.6 | 109.8 | i | 0.83 | 100.4
- COc1cccc(OC)c1C(=O)NNC(=O)c1cccnc1
 : / | / | / | / | i | 0.96 | 99.0
- Cc1ccc2nc(Nc3ccccc3)c(/C=N/O)c(=O)n2c1
 : 0.1 | -1.0 | 56.2 | 102.9 | i | 0.83 | 100.9
- O=[N+]([O-])c1cc(-c2nc(-c3ccncc3)no2)cc([N+](=O)[O-])c1
 : -1.7 | -4.8 | 6.7 | 114.3 | i | 0.92 | 76.7
- O=C(O)c1ccc(CSc2nnc(-c3ccco3)o2)cc1
 : -1.0 | -1.2 | / | / | i | 1.08 | 137.8
- CS(=O)(=O)n1nc(OC(=O)c2cc(Br)ccc2Cl)cc1N
 : / | -5.4 | 25.0 | 125.5 | i | 0.77 | 98.5
- O=C1CC(N2CCN(c3ccccc3F)CC2)C(=O)N1c1ccc2c(c1)OCCO2 (stereo not given)
 : -1.5 | -8.6 | -48.1 | 137.9 | i | 0.99 | 108.8

Some of the entries so far, bar-delimited.
SMILES | GALR2 ag | PKD1 kinase inh | INS promoter inh | INS promoter inh cell count | HSV replic up | HSV replic up primary fold | RGS16-Gao HTS
O=[N+]([O-])c1cc(-c2nc(-c3ccncc3)no2)cc([N+](=O)[O-])c1 | -1.7 | -4.8 | 6.7 | 114.3 | i | 0.92 | 76.7
O=C(O)c1ccc(CSc2nnc(-c3ccco3)o2)cc1 | -1.0 | -1.2 | / | / | i | 1.08 | 137.8
CS(=O)(=O)n1nc(OC(=O)c2cc(Br)ccc2Cl)cc1N | / | -5.4 | 25.0 | 125.5 | i | 0.77 | 98.5
O=C1CC(N2CCN(c3ccccc3F)CC2)C(=O)N1c1ccc2c(c1)OCCO2 (stereo not given) | -1.5 | -8.6 | -48.1 | 137.9 | i | 0.99 | 108.8

(more compounds)
Each structure is followed by: GALR2 ag | PKD1 kinase inh | INS promoter inh | INS promoter inh cell count | HSV replic up | HSV replic up primary fold | RGS16-Gao HTS
- C=CCSc1nc(N2CCOCC2)c2c(c1C#N)CC(C)(C)N(C)C2
 : / | / | / | / | i | 0.9 | 98.1
- Cn1c(=O)n(C)c2cc(/C=N/N=C3/NC(=O)C(CC(=O)O)S3)ccc21 (stereo not given)
 : / | -2.3 | / | / | i | 0.99 | 98.4
- O=[N+]([O-])c1cccnc1N/N=C/c1ccccc1O
 : / | -1.7 | -16.7 | 59.3 | i | 1.06 | 97.3
- CCOC(=O)c1ccc(N/C=C2/CCCC(C)C2=O)cc1 (stereo not given)
 : -2.4 | -10.0 | 7.1 | 126.5 | i | 0.927 | 97.7
- CCCc1nc2ccccc2c(=O)n1-c1c(C)n(C)n(-c2ccccc2)c1=O
 : -3.2 | 6.0 | -14.3 | 92.1 | i | 1.03 | 112.3
- O=C1c2ccccc2C(=O)N1CCSc1nnc(-c2ccco2)n1Cc1ccccc1
 : -0.2 | 7.9 | / | / | i | 0.99 | 97.8
- Cc1cc(C)cc(-n2c3nc4ccccc4nc3c3c(=O)n(Cc4ccco4)cnc32)c1
 : 1.0 | 1.3 | -19.4 | 137.6 | i | 0.78 | 98.3
- Cc1ccc(NC(=O)NC(=O)N(C2CCCCC2)S(=O)(=O)c2ccccc2)cc1
 : 0.6 | 1.9 | 3.6 | 120.3 | i | 0.94 | 110.6
- CCn1cc(/C=N/NC(=O)c2ccc3c(c2)OCO3)c(C)n1
 : -1.7 | -1.4 | -18.8 | 95.0 | i | 0.97 | 102.9
- COC(=O)C1=C(C(=O)OC)C2C(C)=CC(C)=CN2C(C(=O)OC)=C1C(=O)OC (stereo not given)
 : -0.5 | -6.6 | -34.6 | 126.3 | i | 1.04 | 101.3
- CCC(C(=O)NC1CCCCC1)n1c(SCc2ccccc2F)nc2ccncc21 (stereo not given)
 : 0.8 | -8.2 | -50.0 | 99.2 | i | 1 | 103.8
- O=C(/C=C/Nc1cccc([N+](=O)[O-])c1)c1ccco1
 : -1.9 | 3.6 | -43.3 | 127.7 | i | 0.72 | /
- O=C(Cc1ncc(C(F)(F)F)cc1Cl)NCc1ccco1
 : / | -4.0 | 45.5 | 113.5 | i | 0.98 | 86.8
- CCOc1ccc(N/C(C)=C/C(=O)c2ccc3c(c2)OCCO3)cc1
 : / | / | / | / | i | 1.04 | 87.2
- COc1ccc(/C=C(\NC(=O)c2ccccc2)C(=O)OC[C@@H]2CCC[N+]3(C)CCCCC23)cc1OC (stereo not given in full)
 : / | 8.4 | -45.0 | 105.8 | i | 0.98 | 103.9
- O=C(c1cnn(C(=O)COc2ccccc2F)c1)c1cc(F)ccc1O
 : / | / | / | / | i | 1.3 | 105.7
- CC(/C(O)=C(\C#N)c1nc2ccccc2n1C)N1C(=O)c2ccccc2C1=O (stereo not given)
 : -2.2 | -6.0 | -6.7 | 92.9 | i | 0.95 | 101.8
- CCCCOC(=O)Nc1nc(C)c(C(=O)OCC)s1
 : -0.8 | -9.5 | 28.6 | 132.5 | i | 1.03 | 99.0
- CCOc1ccc(NC(=O)c2ccc(NC(=S)NC3CC3)cc2)cc1
 : / | -5.3 | / | / | i | 0.96 | 98.2
- O=C(/C(=N\O)n1cncn1)c1ccc(Br)cc1Br
 : -1.9 | -7.1 | -92.3 | 85.0 | / | / | 81.7
- NC(=O)COC(=O)CCCc1nc2ccccc2s1
 : -1.7 | 5.9 | -40.0 | 156.5 | i | 0.81 | 102.6
- COc1ccc(CCNC(=O)CCCN2C(=O)c3ccccc3C2=O)cc1
 : / | -5.9 | / | / | i | 0.94 | 97.9
- CCN(CC)CCN(Cc1cc2cc(C)c(C)cc2[nH]c1=O)C(=S)NCc1ccco1
 : / | -3.1 | -86.7 | 93.3 | i | 0.92 | 98.1
- Cc1ccc(C)n1CCN1CCN(C(=O)c2ccco2)CC1
 : -1.7 | -9.5 | / | / | i | 0.89 | 101.8
- CC(=O)Nc1ccc(C2=NN(CC#N)C(=O)SC2)cc1
 : -1.3 | 11.9 | / | / | i | 0.95 | 95.5
- CCc1ccc(C2CC(=O)NC(SCC(=O)OC(C)C)=C2C#N)cc1 (stereo not given)
 : -3.5 | 3.4 | / | / | i | 0.94 | 92.2
- COc1ccc(NC(=O)C2CCN(S(=O)(=O)c3c(C)noc3C)CC2)cc1Cl
 : -0.5 | -2.5 | 11.5 | 83.7 | i | 0.85 | 103.7
- CCOC(=O)c1nnsc1-c1ccc(-c2snnc2C(=O)OCC)cc1
 : / | / | / | / | i | 1.41 | 97.2
- CCOC(=O)N1CCN(C(=O)c2cc(C)no2)CC1
 : / | -4.0 | / | / | / | / | 106.3
- CCOC(=O)Nc1ccc(S(=O)(=O)NC2CCCCC2)cc1
 : / | 3.3 | -48.8 | 120.6 | i | 1.06 | 106.7
- O=S(=O)(c1cccc(-c2nnc3n2CCCCC3)c1)N1CCCC1
 : / | -8.5 | 0.0 | 42.9 | i | 0.9 | 106.5
- CCOC(=O)c1nnn(CC(=O)Nc2ccccc2OC)c1C(=O)OCC
 : -1.0 | 5.9 | -58.6 | 69.3 | i | 1.04 | 103.5
- CC(=O)N1CCN(c2cccc(C)c2C)CC1
 : -1.0 | -11.0 | / | / | i | 0.82 | 99.3
- CCC(Oc1ccccc1)C(=O)Nc1nc2c(s1)C(=O)CC(C)(C)C2 (stereo not given)
 : -2.4 | -1.7 | -5.4 | 114.9 | i | 0.99 | 101.8
- CSc1cc(-c2ccccc2)n(Cc2ccccc2Cl)c(=O)c1C#N
 : -0.7 | -6.5 | -12.5 | 95.4 | i | 0.92 | 99.2
- Clc1cccc(-c2csc(Nc3cccnc3)n2)c1
 : / | / | / | / | i | 0.94 | 91.2
- CC(=O)c1cccc(NC(=O)Nc2cccs2)c1
 : -2.7 | -5.5 | 37.5 | 116.8 | i | 0.85 | 102.6
- CN1CCN(S(=O)(=O)c2ccc(NC(=O)COc3ccccc3Cl)cc2)CC1
 : / | -6.8 | / | / | i | 1.03 | 98.3
- COc1ccc(Cl)cc1NC(=S)Nc1ccccc1C
 : / | -6.9 | -55.0 | 172.2 | i | 0.92 | 105.1
- CCOC(=O)c1c(C)noc1-c1ccc(Br)o1
 : / | / | / | / | i | 1.18 | 94.1
- COc1ccc(-c2nc(-c3ccc(O)cc3O)cs2)cc1OC
 : / | 6.3 | 6.7 | 108.5 | i | 0.8 | 106.4
- COc1ccc(OC(C)C(=O)N2CCc3ccccc3C2)cc1 (stereo not given)
 : -2.4 | 1.1 | 10.0 | 120.7 | i | 0.95 | 100.7
- CCN(Cc1ccccc1)C(=O)Cn1c(=O)n(-c2ccc(OC)cc2OC)c(=O)c2c(C)c(C)sc21
 : / | 8.3 | 0.0 | 105.1 | i | 0.88 | 96.5
- CCOC(=O)c1cc(C)nn1-c1nc(Cl)cc(OC)n1
 : -0.5 | 4.6 | -12.9 | 117.2 | i | 0.88 | 44.6
- CC(C)(C)NC(=O)Cn1c(=O)c(=O)n(Cc2ccccc2)c2ccc(Cl)cc21
 : -0.9 | -6.8 | 33.3 | 101.5 | i | 0.9 | 103.5

The order is random. Share with any hit: about 1.3%.
